Cruzain inh noDet: cruzain (T. cruzi) inhibition without detergent; P25779; purified cruzain, Z-FR-AMC fluorescence, no detergent; Potency, µM, for the others: max response, negative = inhibition, most hits filed as inhibitors; hit rate 2.3% among 200,000; AID 1476; active means well fitted curve in the direction sought with a large enough effect; inconclusive means small, poorly fitted or top-dose-only effect, or another doubt; inactive means no such curve, though single readings can be large; an effect the other way counts as inactive or inconclusive;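 further: plate controls were enzyme without inhibitor for no effect and buffer without enzyme for full effect; nearly all actives have a fitted effect of over 40% in size; top concentration of the series not given in the record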
Target sequence (P25779 123-467 limits assumed): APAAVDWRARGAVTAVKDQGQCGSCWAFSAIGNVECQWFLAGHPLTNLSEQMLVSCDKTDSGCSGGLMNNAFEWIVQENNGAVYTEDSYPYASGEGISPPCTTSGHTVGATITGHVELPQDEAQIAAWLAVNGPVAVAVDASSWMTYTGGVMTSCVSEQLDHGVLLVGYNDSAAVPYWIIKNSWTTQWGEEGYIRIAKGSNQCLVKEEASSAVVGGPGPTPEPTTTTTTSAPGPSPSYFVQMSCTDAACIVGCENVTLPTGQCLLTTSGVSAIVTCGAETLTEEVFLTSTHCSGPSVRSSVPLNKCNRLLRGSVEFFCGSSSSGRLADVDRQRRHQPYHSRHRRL
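Detergent-free condition (0.00005% Triton X-100) in acetate buffer pH 5.5 with DTT. 1.5 nM enzyme and compound were pre-mixed 15 min, then 2 uM Z-FR-AMC substrate added; reaction progress from fluorescence change between first and third reads (60 s).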
LASV entry inh: inhibitors of Lassa virus binding or cell entry; hit rate 1.2% among 300,000; Lassa virus pseudotype entry inhibition, cell reporter; control for the full effect not named in the record; Potency, µM (doses to about 37.9 µM), for inactives: top-dose activity change, negative = inhibition, usual class: inhibitors; AID 540256; active means well fitted inhibition curve with a large enough effect; inconclusive means small, poorly fitted or top-dose-only effect, or effect the other way; inactive means flat fitted curve, though single readings scatter; tested in HEK293 cells; further: on the % scale 0 is the no-effect control and ±100 the full control effect; nearly all actives have a fitted effect of over 50% in size; luciferase read-out
SARS PLP yeast: blocks SARS-CoV papain-like protease in a yeast assay | S. cerevisiae expressing SARS-CoV PLpro, growth rescue; control for the full effect not named in the record | hit rate 0.19% among 330,000 | AID 485353 | Potency, µM (doses to about 32.9 µM), for the others: at the highest dose activity, positive = growth rescue; further: 0% is about no effect; nearly all actives have a fitted effect of over 55% in size; growth read by luminescence after 48 h
Cruzain inh Det: cruzain (T. cruzi) inhibition with detergent | P25779 | Potency, µM, without a hit: max response, negative = inhibition, hits mostly inhibitors | hit rate 0.43% among 200,000 | AID 1478 | purified cruzain, Z-FR-AMC fluorescence, 0.01% Triton; active means well fitted curve in the direction sought with a large enough effect; inconclusive means small, poorly fitted or top-dose-only effect, or another doubt; inactive means no such curve, though single readings can be large; an effect the other way counts as inactive or inconclusive;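 further: plate controls were neutral wells for no effect and buffer without enzyme for full effect; nearly all actives have a fitted effect of over 40% in size; top concentration of the series not given in the record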
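Steps: dispense cruzain (1.5 nM final) in acetate buffer pH 5.5 with DTT and 0.01% Triton X-100; pin-transfer compounds; incubate 15 min RT; add Z-FR-AMC (2 uM final); read fluorescence every 30 s, using the 60 s intensity change.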
NS1 inh: influenza NS1 inhibition; hit rate 0.4% among 270,000; S. cerevisiae slowed by influenza A NS1, growth recovery by OD600; Potency, µM (top dose mostly 46.1 µM), for inactives: at the top dose activity, positive = more growth; further: actives are rising curves; nearly all actives have a fitted effect of over 50% in size
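Compounds were scored for reversing the slow growth caused by influenza A NS1 in S. cerevisiae, measured by optical density at 600 nm. Assay medium contained 2% galactose at pH 6.0; NS1-free yeast of the same strain were the positive control.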
RE007 growth inh: less growth of the S. pombe RE007 Vpr strain | S. pombe RE007 Vpr strain, BacTiter-Glo ATP luminescence, 24 h; control for the full effect not named in the record | Potency, µM (titrated, usually from 92.2 µM), for the others: at the highest dose activity change, negative = less growth | hit rate 0.21% among 360,000; active = well fitted falling curve with a large enough effect; inconclusive = small, poorly fitted or top-dose-only effect; inactive = no such curve, though single readings can be large or run the other way;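 further: on the % scale 0 is the no-effect control and ±100 the full control effect; nearly all actives have a fitted effect of over 50% in size; the assay follows cell death caused by Vpr and the record does not say whether a fall means rescue or toxicity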
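Fission yeast strain RE007, carrying one chromosomally integrated HIV-1 vpr copy, was seeded at OD 0.01 in PMG+AL medium with 23 nL pinned compound. After 24 h at 30 °C and 99% humidity, viability was read by BacTiter-Glo luminescence.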
Marburg entry inh: blocks Marburg virus binding to or entry into cells. Marburg virus pseudotyped entry inhibition, cell reporter; control for the full effect not named in the record; about a third of the inactives were read at about 46 µM. Potency, µM (series often up to 37.8 µM), for inactives: at the top dose activity change, negative = inhibition, actives largely listed as inhibitors. hit rate 1.8% among 300,000; active = well fitted inhibition curve with a large enough effect; inconclusive = small, poorly fitted or top-dose-only effect, or effect the other way; inactive = flat fitted curve, though single readings scatter; tested in HEK293 cells; about a fifth of its hits are not listed in these tables; further: on the % scale 0 is the no-effect control and ±100 the full control effect; luciferase read-out
StopGo reporter: FMDV 2A StopGo reporter, luciferase signal | hit rate 1.2% among 410,000 | human cells with a luciferase reporter of 2A StopGo recoding; control for the full effect not named in the record | Potency, µM (titrated, usually from 57.9 µM), without a hit: top-dose signal change, negative = less light | AID 1159524; active = well fitted falling curve with a large enough effect; inconclusive = small, poorly fitted or top-dose-only effect; inactive = no such curve, though single readings can be large or run the other way; tested in HEK293T cells; further: on the % scale 0 is the no-effect control and ±100 the full control effect; nearly all actives have a fitted effect of over 45% in size; luciferase light after 4 h
* marks the source's active call; other numbers are inactive results; u = inconclusive; x = not tested or not shown; & = joins results of further samples; [ ] = dose if it differs, or a comment. Unless noted, the call rests on the fitted dose curve; in most records, active means well fitted rising curve with a large enough effect; inconclusive means small, poorly fitted or top-dose-only effect; inactive means no such curve, though single readings can be large or run the other way. Potency means the concentration at half of the fitted maximal effect. Random draw from the library (roughly 4.5% active in at least one column).

nr	structure	Cruzain inh noDet	LASV entry inh	SARS PLP yeast	Cruzain inh Det
1	CCc1ccccc1N(CC(=O)N1CCCCC1)S(=O)(=O)c1ccccc1	x	19%	-1%	x
2	Cc1cccc(N(CC(=O)N2CCOCC2)S(C)(=O)=O)c1C	-4%	-18%	-5%	3.9%
3	COc1cc2c(cc1OC)C(c1ccsc1)CC(=O)N2 (configuration not stated)	13%	-3%	0%	-0.8%
4	O=C(COc1ccc(S(=O)(=O)N2CCCC2)cc1Cl)N1CCN(c2ccccc2)CC1	8%	19%	4%	-5.3%
5	Cc1cc(/N=C/C=C2\N(C)c3ccccc3C2(C)C)n(CCC#N)n1	-6%	-78%	5%	-6.1%
6	C=CCNC(=O)c1onc(CSc2cccc(OCC)c2)c1C(=O)O	2%	x	-2%	-1.1%
7	CC1CCCN(CCCNC(=O)CN2C(=O)CSc3ccc(S(=O)(=O)N4CCOCC4)cc32)C1 (configuration not stated)	7%	16%[46.1 µM]	-17%	2.1%
8	CC(=O)c1ccc(N2CCN(S(=O)(=O)c3ccc4c(c3)CC(=O)N4)CC2)cc1	x	x	0%	x

nr	NS1 inh	RE007 growth inh	Marburg entry inh	StopGo reporter
1	-7%	-2%	-1%[46.1 µM]	47%[activator]
2	6%	-1%	-6%	-6%
3	8%	-2%	-3%	0%
4	-1%	4%	u	x
5	-9%	-4%	u	x
6	4%	-8%	x	-1%
7	7%	0%	x	0%&-13%
8	12%	6%	x	-8%

(further entries)
nr	structure	Cruzain inh noDet	LASV entry inh	SARS PLP yeast	Cruzain inh Det
9	O=C(c1ccco1)N1CCN(C(c2coc3ccc(Cl)cc3c2=O)c2nnnn2C2CCCC2)CC1 (configuration not stated)	x	-19%	x	x
10	O=C(O)CCC(=O)Nc1nc2nc(-c3ccccc3)cc(-c3ccccc3)n2n1	-12%	10%	3%	-12%
11	CCC(=O)N(CCC1(c2ccccc2OC)CCOC(C(C)C)C1)Cc1ccco1 (configuration not stated)	x	-22%	0%	x
12	CCCSc1nnc(Cn2c(=O)sc3ccccc32)n1-c1ccccc1	-17%	x	-6%	-6.3%
13	COc1ccccc1/C=N/NC(=O)c1ccc(=O)n(C)c1	4%	12%	-13%	-3.8%
14	COc1ccc(/C=C/C(=O)NCCC(=O)N2CCCN(C)CC2)cc1	x	23%[46.1 µM]	0%	x
15	CCCCN1CC(COc2ccccc2)OC1=O (configuration not stated)	0%	16%	1%	6.2%
16	Cn1c(=O)n(C)c2cc(N3CCCCC3)c(NC(=O)c3c(F)cccc3F)cc21	8%	u	x	-8.1%

nr	NS1 inh	RE007 growth inh	Marburg entry inh	StopGo reporter
9	x	-5%	1%	-28%
10	21%	0%	24%	0%
11	-2%	-1%	u	u
12	u	10%	x	-29%
13	3%	-18%	u	-8%
14	4%	-10%	27%[46.1 µM]	23%
15	-72%	2%	-6%	x
16	x	x	u	-22%

Down the list, from the results shown:
NS1 inh, entries 9 to 13: x, 21%, -2%, u, 3%
StopGo reporter, entries 9 to 13: -28%, 0%, u, -29%, -8%
Cruzain inh Det, entries 9 to 13: x, -12%, x, -6.3%, -3.8%

The results go on.
nr	structure	Cruzain inh noDet	LASV entry inh	SARS PLP yeast	Cruzain inh Det
17	COc1ccc(-c2n[nH]c(C)c2-c2cnn(-c3ccccc3)c2)c(O)c1	-4%	-16%	-56%	-13%
18	O=C(NCC(c1ccco1)N1CCCCC1)c1ccc([N+](=O)[O-])s1 (configuration not stated)	x	u	6%	x
19	COc1cccc(C(=O)N2C(C(=O)O)CSC2c2ccccc2Cl)c1 (configuration not stated)	12%	10%	-2%	-1.1%
20	Cc1cccc(N2CCN(C(c3ccccc3)c3nnnn3C(C)(C)C)CC2)c1C (configuration not stated)	-3%	3.3µM*	-64%	-2.9%
21	CCOC(=O)C1CCN(Cc2nc3ccc([N+](=O)[O-])cc3c(=O)n2-c2ccc(OC)cc2OC)CC1	x	x	1%	x
22	COC(=O)CN(C(=S)Nc1ccc(F)cc1)C1CC(=O)N(c2ccccc2)C1=O (configuration not stated)	-7%	1%	23%	-0.6%
23	COc1ccc(NC(=S)Nc2cc(C)cc(C)n2)cc1OC	-3%	10%	14%	4.0%
24	CCCCN1C(=O)NC(=O)C2(Cc3cc(C)ccc3N(C)C2)C1=O (configuration not stated)	10%	7%	-3%	1.4%

nr	NS1 inh	RE007 growth inh	Marburg entry inh	StopGo reporter
17	-26%	0%	u	-16%
18	x	-8%	u	-9%
19	4%	5%	26%	0%
20	4%	2%	u	-7%
21	1%	2%	x	-10%
22	1%	-10%	u	0%
23	6%	-17%	25%	10%
24	0%	19%	-11%	-6%

The listing continues.
nr	structure	Cruzain inh noDet	LASV entry inh	SARS PLP yeast	Cruzain inh Det
25	CSc1nc(Cl)c(Cc2ccc(OCC(C)C)cc2)c(N2CCOCC2)n1	-6%	x	-22%	-4.4%
26	Cc1c(C#N)c(O)[nH]c(=O)c1N=Nc1ccc(Br)cc1C(=O)O	x	2%	3%	x
27	Cc1ccccc1OP(N)(=O)Oc1ccccc1C	x	-4%	4%	x
28	CCOC(=O)C1CCN(S(=O)(=O)c2cc(-c3onc(C)c3C)ccc2OC)CC1	u	-2%[46.1 µM]	x	-0.9%
29	N#Cc1ccc(C(=O)CN2CCN(c3ccccc3)CC2)cc1	x	-7%	0%	x
30	C=CCN1CCN(C(=O)c2ccc3c(c2)OCO3)CC1	x	x	-4%	x
31	COc1ccc(CCNC(=O)CSc2cc(=O)[nH]c(N)n2)cc1OC	0%	5%	-5%	-0.9%
32	CC(C)c1nc2oc3c(NCc4ccccn4)ncnc3c2c2c1COC(C)(C)C2	x	0%	x	x

nr	NS1 inh	RE007 growth inh	Marburg entry inh	StopGo reporter
25	-5%	1%	3%	u
26	5%	2%	16%[46.1 µM]	-4%
27	x	-2%	18%[46.1 µM]	-17%
28	x	x	x	-10%
29	-2%	-18%	-7%[46.1 µM]	-3%
30	15%	-14%	x	-5%
31	5%	-3%	12%	-10%
32	-4%	5%	0%[46.1 µM]	-28%

Following part
nr	structure	Cruzain inh noDet	LASV entry inh	SARS PLP yeast	Cruzain inh Det
33	CC(C)Sc1snnc1-c1ccccc1	x	u	-3%	x
34	CC(=O)Nc1nc(C2CC2)cc(-c2ccccc2)c1C#N	x	-4%	1%	x
35	Cc1nnc(SCC(=O)NNC(=O)COc2ccc(Cl)cc2)s1	x	10%	1%	x
36	CC(C)(C)c1csc(N/N=C/c2ccc(O)cc2)n1	x	x	7%	x
37	COc1ccc(CN2CC(=O)N(c3ccc(C)cc3C)C2=S)cc1OC	x	u	1%	x
38	CC(NS(=O)(=O)c1ccc(Cl)cc1)C(=O)OCC(=O)Nc1ccc(N(C)C)cc1 (configuration not stated)	x	-13%	-5%	x
39	OCCN1C2CCC1CC(O)(c1ccc(F)cc1)C2 (configuration not stated)	11%	18%	10%	17%
40	COc1ccccc1NC(=O)CCC(=O)Nc1ccccc1OC	-6%	-23%	1%	-2.0%

nr	NS1 inh	RE007 growth inh	Marburg entry inh	StopGo reporter
33	x	0%	-20%[46.1 µM]	11%
34	2%	-5%	u	-7%
35	x	21%	-1%	-10%
36	16%	-1%	x	26%
37	x	10%	-10%[46.1 µM]	u
38	x	u	5%	-1%
39	9%	7%	-7%	18%
40	3%[9.22 µM]	-4%	1%	14%

Later entries
nr	structure	Cruzain inh noDet	LASV entry inh	SARS PLP yeast	Cruzain inh Det
41	CCc1nc2sc3c(c2c(=O)o1)CCCC3	3%	11%	-24%	-1.2%
42	COc1ccc(/C=C/C(=O)NCC(=O)N/N=C/c2cc(Br)ccc2OC)cc1	-2%	4%	-3%	2.2%
43	O=C(NC1CC2CCCC(C1)N2C(=S)Nc1ccccc1Cl)C1CC1 (configuration not stated)	x	x	-1%	x
44	CCc1cccc(C)c1NC(=O)C1CCCN(S(C)(=O)=O)C1 (configuration not stated)	x	-1%[46.1 µM]	-9%	x
45	O=C(COc1ccccc1)Nc1nnc(S(=O)(=O)Nc2ccccc2)s1	-9%	-3%[46.1 µM]	-9%	-1.8%
46	O=C(CCS(=O)(=O)c1cc(Br)cc2c1N(C(=O)C1CC1)CC2)NCc1ccccc1Cl	-2%	16%[46.1 µM]	x	-0.3%
47	S=C(Nc1ccccc1)Nc1ccccc1Br	x	u	1%	x

nr	NS1 inh	RE007 growth inh	Marburg entry inh	StopGo reporter
41	-58%	6%	8%&8%	-13%
42	11%	-2%	-27%	-5%
43	2%	-18%	0%[46.1 µM]	2%
44	9%	14%	13%[46.1 µM]	-14%
45	15%	1%	x	-3%&6%
46	x	x	3%[46.1 µM]	17%
47	-1%	3%	-8%	38%[activator]

Compounds shown so far that contain a cyano group, in the order listed:
nr	structure	Cruzain inh noDet	LASV entry inh	SARS PLP yeast	Cruzain inh Det
5	Cc1cc(/N=C/C=C2\N(C)c3ccccc3C2(C)C)n(CCC#N)n1	-6%	-78%	5%	-6.1%
26	Cc1c(C#N)c(O)[nH]c(=O)c1N=Nc1ccc(Br)cc1C(=O)O	x	2%	3%	x
29	N#Cc1ccc(C(=O)CN2CCN(c3ccccc3)CC2)cc1	x	-7%	0%	x
34	CC(=O)Nc1nc(C2CC2)cc(-c2ccccc2)c1C#N	x	-4%	1%	x

nr	NS1 inh	RE007 growth inh	Marburg entry inh	StopGo reporter
5	-9%	-4%	u	x
26	5%	2%	16%[46.1 µM]	-4%
29	-2%	-18%	-7%[46.1 µM]	-3%
34	2%	-5%	u	-7%

High-throughput results from PubChem.
